From PubChem
HSV replic up: HSV replication enhancement | HSV replication augmentation in cells, fold increase | maximum fold increase | actives 0.005% (n = 220,000);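 active means peak rise of 1.5-fold or more in the series; inconclusive means self-fluorescent or not available for retest; tested in PC3 cells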;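 further: first round at 10 µM; read as green reporter fluorescence; hits show the peak of a series up to 25 µM; 1 = signal of infected wells without compound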
RGS16-Gao HTS: RGS16-Galphao interaction regulator (human); O15492+P09471; bead-based flow cytometry RGS16-Galphao binding, fluorescence; actives lie on both sides; binding response (% of control), % at 10 µM; actives 0.38% (n = 220,000);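 active means below 25% or above 175%, edge rows of some plates excepted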;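 further: Galphao activated by GDP with aluminum fluoride before binding; 100% = wells without compound and 0% = beads without RGS; some results beyond the cut were filed as inactive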
Target sequence (O15492 whole entry, looked up): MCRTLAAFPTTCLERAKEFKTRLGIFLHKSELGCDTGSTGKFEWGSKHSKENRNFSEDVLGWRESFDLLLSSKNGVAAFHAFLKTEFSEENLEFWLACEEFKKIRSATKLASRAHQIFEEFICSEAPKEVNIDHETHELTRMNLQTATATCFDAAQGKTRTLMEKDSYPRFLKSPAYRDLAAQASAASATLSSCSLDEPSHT
Target sequence (P09471 whole entry, looked up): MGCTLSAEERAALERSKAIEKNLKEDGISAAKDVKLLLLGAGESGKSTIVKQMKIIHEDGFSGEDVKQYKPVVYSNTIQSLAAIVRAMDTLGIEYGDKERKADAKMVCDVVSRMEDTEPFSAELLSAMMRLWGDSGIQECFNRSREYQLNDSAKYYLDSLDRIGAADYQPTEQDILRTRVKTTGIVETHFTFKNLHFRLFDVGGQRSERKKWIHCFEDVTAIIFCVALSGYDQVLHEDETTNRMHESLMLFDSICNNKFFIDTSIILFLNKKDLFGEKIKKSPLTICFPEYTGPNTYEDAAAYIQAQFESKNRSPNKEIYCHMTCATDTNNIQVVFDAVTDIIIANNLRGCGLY
Insulin prom inh: TRM-6 insulin promoter activity inhibition; TRM-6 cells (human fetal islet line), insulin promoter-eGFP reporter, imaging; reporter expression induced with tamoxifen; inhibition, % at 2 µM; actives 0.9% (n = 130,000);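 active means inhibition above the mean plus 3 SD, with well images judged a real hit on visual review, cut at about 60% in these data, passing the limit was not always enough; inconclusive means inhibition over the cutoff but images rejected on review; inactive means inhibition not above the cutoff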
GALR2 agonist: agonists of human galanin receptor 2 (GALR2) | GALR2-expressing cells, agonist activation read-out | activation, %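 (tested at 5 µM)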 | actives 0.48% (n = 140,000);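 active means above mean plus 3 SD of all compounds, about 5% in these data, not always enough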;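 further: 0% = vehicle buffer wells and 100% = reference agonist at full effect; tested in CHO reporter cells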
Target sequence (O43603 whole entry, looked up): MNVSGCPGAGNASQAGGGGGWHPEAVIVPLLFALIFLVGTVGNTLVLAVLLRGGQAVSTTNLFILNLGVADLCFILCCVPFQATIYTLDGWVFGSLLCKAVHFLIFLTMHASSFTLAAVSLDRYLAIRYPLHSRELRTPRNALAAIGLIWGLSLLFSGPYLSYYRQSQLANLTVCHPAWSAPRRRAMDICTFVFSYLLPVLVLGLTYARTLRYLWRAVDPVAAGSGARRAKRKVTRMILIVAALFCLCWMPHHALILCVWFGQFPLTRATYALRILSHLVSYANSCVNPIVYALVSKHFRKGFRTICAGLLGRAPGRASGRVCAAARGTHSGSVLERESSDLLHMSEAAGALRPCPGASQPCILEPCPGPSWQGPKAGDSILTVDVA
PKD1 kinase inh: inhibitors of human PKD1 kinase; inhibition, %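 (about 10 µM by stock and volumes)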; actives 0.056% (n = 200,000); PKD1 kinase fluorescence polarization assay;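 active means inhibition of 50% or more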;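 further: controls were vehicle for no effect and a reference inhibitor for full effect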
Insulin prom inh cell count: further read-out of Insulin prom inh, marked with its call; normalized cell count, %; measured here: cell count, toxicity; reference of the scale not given here;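 cells exposed to compound for 48 h; stained nuclei by imaging scaled within each plate; lower means fewer cells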
HSV replic up primary fold: also measured in HSV replic up; calls as there; fold increase; compound at 10 µM; measured here: primary screen fold increase 10 uM; tested in PC3 cells;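 GFP signal in the first replicate; 1 = infected wells without compound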
An asterisk follows results filed as active; i = inactive; ? = inconclusive; / = not tested or not shown. Rows are unselected; any-hit rate near 1.2%.

SMILES | HSV replic up | HSV replic up primary fold | RGS16-Gao HTS | Insulin prom inh | Insulin prom inh cell count | GALR2 agonist | PKD1 kinase inh
COc1ccccc1-n1cnnc1SCC(=O)NCc1cccs1 | i | 1 | 108.0 | -19.2 | 73.2 | -1.1 | -2.7
COc1cc(C2C(N3C(=O)c4ccccc4C3=O)C(=O)N2c2cccc(C)c2)cc(OC)c1OC (stereo not given) | i | 1.04 | 130.2 | -17.1 | 38.7 | -0.7 | -8.4
COc1ccc(S(=O)(=O)N(C(=O)c2ccco2)c2cc3sc(=O)oc3c3ccccc23)cc1 | i | 0.87 | 99.0 | -3.9 | 73.1 | -1.5 | -6.3
Cc1cccc(NC(=O)c2cc(-c3ccccn3)nc3ccccc23)c1C | i | 0.95 | 101.1 | / | / | / | -4.8
COc1cccc(/C(O)=C2/C(=O)C(=O)N(Cc3ccco3)C2c2ccncc2)c1 (stereo not given) | i | 0.93 | 98.6 | 4.2 | 121.3 | -2.3 | 2.0
COc1ccc(CCNC(=O)C2CC(c3ccc(C(F)(F)F)cc3)=NO2)cc1 (stereo not given) | i | 0.89 | 100.7 | / | / | / | /
CCCc1sc(N2CCCC(C(N)=O)C2)nc1-c1ccccc1 (stereo not given) | i | 0.97 | 111.8 | / | / | -1.1 | 0.0
COc1ccc(NC(=O)CN2CCN(S(=O)(=O)c3ccc(F)cc3)CC2)cc1Cl | i | 0.96 | 99.3 | -36.4 | 146.8 | 0.0 | 9.9
O=C(Nc1nc2ccccc2[nH]1)c1ccc(F)cc1 | i | 1.08 | 92.0 | 28.6 | 120.9 | -0.2 | -0.7
Cc1cc(C)cc(OCC(=O)NNC(=O)C2CCCO2)c1 (stereo not given) | i | 0.8 | 93.9 | -14.3 | 112.4 | / | 1.9
O=c1[nH]c2cc3c(cc2cc1CN(Cc1ccco1)C(=S)NCCCN1CCOCC1)OCCO3 | i | 0.89 | 142.8 | / | / | / | 0.0
CCN(CC)c1ccc(Nc2nc(N3CCOCC3)c3ccccc3n2)cc1 | i | 0.82 | 91.6 | 7.1 | 171.1 | -2.4 | 1.4
CCCS(=O)(=O)N1CCn2c(nc3ccccc32)C1 | / | / | 109.9 | / | / | -0.9 | -13.0
Cc1nnc(N2CCN(c3ccccc3)CC2)c2nn(-c3ccccc3F)c(C)c12 | / | / | / | -27.3 | 123.7 | -0.5 | -9.9
CCC(CC)c1nnc(NC(=O)c2cc([N+](=O)[O-])ccc2N2CCCCC2)s1 | i | 0.87 | 105.4 | / | / | 0.9 | -7.8
CCCCOc1ccc(C(=O)Nc2ccc(N3CCN(C(C)=O)CC3)cc2)cc1 | / | / | 96.3 | 10.3 | 105.9 | -1.7 | -0.2
CCOc1ccc(NC(=S)N(CCOC)C(C)c2ccco2)cc1 (stereo not given) | i | 0.91 | 92.5 | / | / | / | /
N#Cc1ccc(-c2ccccc2)nc1SCC(=O)c1cc2ccccc2oc1=O | i | 1.02 | 89.8 | -9.1 | 143.6 | -0.8 | -3.4
COc1ccc(Br)cc1CN(C)CC(=O)Nc1cc(Cl)cc(Cl)c1 | i | 0.95 | 111.1 | -3.3 | 105.0 | -0.8 | -12.6
O=C(Nc1ncn[nH]1)c1ccc([N+](=O)[O-])cc1[N+](=O)[O-] | i | 0.84 | 95.3 | 21.4 | 114.9 | -2.6 | -6.5
O=[N+]([O-])c1ccc(N2CCN(C(=S)c3cccc([N+](=O)[O-])c3)CC2)cc1 | i | 0.86 | 67.6 | / | / | / | /
Cc1ccc(-n2ncc3c(SCc4ccccc4)ncnc32)cc1 | i | 1.04 | 96.5 | -8.8 | 152.1 | -1.3 | 8.7
CCn1c(SCC(=O)Nc2cc(NC(C)=O)ccc2OC)nnc1-c1cccnc1 | i | 0.86 | 78.5 | -30.0 | 63.5 | -1.1 | 4.9
COc1cc(OC)c(OC)cc1/C=N/NC(=S)NCC1CCCO1 (stereo not given) | i | 0.87 | 101.0 | -29.7 | 76.1 | -1.6 | 1.2
Nc1ccc(OCCCc2c(N)nc(N)nc2N)cc1 | i | 1.01 | 93.0 | / | / | / | /
CNc1nc(-c2ccccc2)nc(-c2ccccc2)c1C#N | i | 0.9 | 103.0 | 28.6 | 178.1 | -1.1 | -2.9
O=C(Nc1ccc(N2CCCC2)cc1)C(Cl)c1ccccc1 (stereo not given) | i | 1.08 | 98.5 | 4.7 | 169.2 | -0.5 | 1.7
Cc1ccc(C(=O)Cn2c(C)cc(C)c(C#N)c2=O)cc1 | i | 0.93 | 96.7 | / | / | -1.9 | -0.4
COc1cc(CC(=O)OCC(=O)Nc2cccc([N+](=O)[O-])c2)cc(OC)c1OC | i | 1.08 | 128.3 | / | / | -1.9 | 6.2
Cc1ccc[n+](CC(=O)Nc2nc3ccccc3s2)c1 | i | 0.91 | 121.9 | / | / | / | -1.8
Cc1c(C(=O)OC2CCCC2)[nH]c2c1C(=O)CC(c1ccco1)C2 (stereo not given) | i | 0.56 | 95.4 | -360.0 | 8.4 | 1.3 | -7.7
CSc1ccc(/C=C(\NC(=O)c2ccc(C)cc2)C(=O)NN)cc1 | i | 1.14 | 95.4 | / | / | / | /
Cc1ccc(C)n1CCN1CCN(C(=O)CC#N)CC1 | i | 0.96 | 101.5 | / | / | / | 3.3
CN(C)S(=O)(=O)c1ccc(C(=O)OCn2nnc3ccccc3c2=O)cc1 | i | 0.96 | 101.6 | / | / | -1.8 | 2.7
COc1cc(O)c(C(CC(=O)N2CCCC(C)C2)c2cc(OC)c(OC)c(OC)c2)c(OC)c1 (stereo not given) | i | 0.89 | 104.6 | / | / | / | /
C=CCNC(=O)COc1ccc(S(=O)(=O)NC2CCCCC2)cc1 | i | 1.17 | 99.7 | 17.3 | 57.1 | 0.5 | -3.6
CCCCOC(=O)c1ccc(NC(=S)NC(=O)c2c(Br)c(C)nn2C)cc1 | i | 0.97 | 101.7 | -9.4 | 188.0 | -1.7 | -12.9
Cn1c(CO)cnc1S(=O)(=O)Cc1ccc([N+](=O)[O-])cc1 | i | 0.79 | 98.4 | / | / | -1.4 | -14.4
COC(=O)/C(=C/c1ccc(F)cc1)NC(C)=O | i | 0.9 | 101.5 | / | / | -0.8 | -2.3
Cc1cc(C)n2nc(C(=O)N(C)C(c3ccccc3)c3ccccc3)nc2n1 | i | 1.16 | 107.6 | -33.3 | 59.5 | / | -6.8
COc1cc(Nc2cc(C)nc3ncnn23)cc(OC)c1OC | i | 1.09 | 62.7 | / | / | -2.0 | 5.1
N#Cc1c(NC(=O)c2ccc(Cn3cc(Br)cn3)o2)sc2c1CCCCC2 | i | 1.09 | 110.1 | 8.6 | 223.9 | -0.5 | -0.2
CN(C)CCN(C(=O)c1ccc2c(c1)OCCO2)c1nc2ccc(Cl)cc2s1 | i | 1.01 | 96.3 | 22.2 | 96.5 | / | -7.6
Cc1cc(-n2c(C)cc(C(=O)CSc3nc(N)cc(=O)[nH]3)c2C)no1 | i | 1.2 | 95.8 | / | / | / | /
COC1=NS(=O)(=O)c2ccccc21 | i | 1.04 | 105.3 | / | / | -1.0 | 1.7

Nine neighbouring entries out of the list so far:
SMILES | HSV replic up | HSV replic up primary fold | RGS16-Gao HTS | Insulin prom inh | Insulin prom inh cell count | GALR2 agonist | PKD1 kinase inh
CCCCOC(=O)c1ccc(NC(=S)NC(=O)c2c(Br)c(C)nn2C)cc1 | i | 0.97 | 101.7 | -9.4 | 188.0 | -1.7 | -12.9
Cn1c(CO)cnc1S(=O)(=O)Cc1ccc([N+](=O)[O-])cc1 | i | 0.79 | 98.4 | / | / | -1.4 | -14.4
COC(=O)/C(=C/c1ccc(F)cc1)NC(C)=O | i | 0.9 | 101.5 | / | / | -0.8 | -2.3
Cc1cc(C)n2nc(C(=O)N(C)C(c3ccccc3)c3ccccc3)nc2n1 | i | 1.16 | 107.6 | -33.3 | 59.5 | / | -6.8
COc1cc(Nc2cc(C)nc3ncnn23)cc(OC)c1OC | i | 1.09 | 62.7 | / | / | -2.0 | 5.1
N#Cc1c(NC(=O)c2ccc(Cn3cc(Br)cn3)o2)sc2c1CCCCC2 | i | 1.09 | 110.1 | 8.6 | 223.9 | -0.5 | -0.2
CN(C)CCN(C(=O)c1ccc2c(c1)OCCO2)c1nc2ccc(Cl)cc2s1 | i | 1.01 | 96.3 | 22.2 | 96.5 | / | -7.6
Cc1cc(-n2c(C)cc(C(=O)CSc3nc(N)cc(=O)[nH]3)c2C)no1 | i | 1.2 | 95.8 | / | / | / | /
COC1=NS(=O)(=O)c2ccccc21 | i | 1.04 | 105.3 | / | / | -1.0 | 1.7

Other entries:
SMILES | HSV replic up | HSV replic up primary fold | RGS16-Gao HTS | Insulin prom inh | Insulin prom inh cell count | GALR2 agonist | PKD1 kinase inh
[O-]/[N+](=C\c1ccncc1)c1ccc(Br)cc1 | i | 0.93 | 60.6 | -12.5 | 132.0 | -1.0 | -4.8
Nn1c(SCC(=O)Nc2ccc3c(c2)OCCO3)nnc1C(F)(F)F | i | 1.01 | 102.0 | / | / | -3.0 | -2.8
O=C(CN1CCCCC1)Nc1ccc(S(=O)(=O)N2CCCCCC2)cc1 | i | 1 | 98.5 | -16.1 | 115.8 | -2.2 | -4.0
COc1ccc(NC2=CC(c3ccc(OC)c(OC)c3)N(c3ccc(OC)cc3)C2=O)cc1 (stereo not given) | i | 1.13 | 18.4 | / | / | -1.4 | 7.8
COc1ccc(/C=C/C(=O)Nc2nc(N)n(-c3ccccc3)n2)cc1 | i | 1.01 | 100.5 | -103.1 | 131.6 | -0.7 | 7.9
CC(=O)Oc1c(Cl)cc(Cl)cc1/C=C/c1ccc2ccccc2n1 | ? | / | 102.9 | -17.2 | 128.5 | -3.7 | -9.1
COc1cccc(/C=N/Nc2nc3ccccc3[nH]2)c1O | i | 0.87 | 89.3 | / | / | / | /
Cc1c(NC(=O)c2ccc(Cl)c(S(=O)(=O)N3CCOCC3)c2)c(=O)n(-c2ccccc2)n1C | i | 1.24 | 100.6 | 60.0 | 93.5 | -1.8 | -5.0
CCOC(=O)CNS(=O)(=O)c1c(C)noc1C | i | 1.03 | 90.2 | -47.4 | 154.9 | 0.1 | -11.2
Cc1ccccc1-n1c(SCC(=O)N(C)C2CCS(=O)(=O)C2)nc2ccccc2c1=O (stereo not given) | i | 0.96 | 106.4 | / | / | / | -4.1
CC(C)(C)NC(=O)COc1ccc(CNc2ncn[nH]2)cc1 | i | 0.99 | 106.2 | / | / | / | 3.1
CCc1ccc(NC(=S)Nc2ccc(S(=O)(=O)Nc3ncccn3)cc2)cc1 | i | 1.18 | 101.2 | 22.2 | 101.3 | / | 7.5
CC(C)(C)C1CCC(C(=O)OCC(=O)N2CCN(C(=O)c3ccco3)CC2)CC1 (stereo not given) | i | 1.06 | 100.4 | / | / | / | 3.2
COc1ccccc1-n1c(-c2cc(-c3ccc(F)cc3)n[nH]2)n[nH]c1=S | i | 1.09 | 96.2 | / | / | / | 4.1
CCC(C)(C)NC(=O)Cn1c(-c2ccccc2)cc(C(C)=O)c1C | / | / | 114.9 | -35.7 | 121.6 | / | -11.6
COc1ccc(C2C=C(c3cccs3)Nc3nc(CCCO)nn32)cc1 (stereo not given) | i | 0.95 | 116.1 | -83.3 | 80.8 | -2.4 | -0.4
CCOC(=O)CSc1nc2sc3c(c2c(=O)[nH]1)CC(C)(C)OC3 | i | 0.98 | 102.2 | -27.3 | 96.0 | -2.5 | -8.2
Cc1cc(C)c(S(=O)(=O)NCCCn2ccnc2)c(C)c1 | i | 0.94 | 98.9 | 7.7 | 31.6 | -2.0 | -5.7
CCCCC(=O)Nc1ccccc1C#N | i | 1.05 | 109.6 | 22.2 | 115.3 | -0.6 | -1.9
COc1ccc(C(=O)N(c2ccccn2)C2CCCCC2)c(OC)c1 | i | 0.98 | 70.2 | / | / | / | -5.9
CN(CC(=O)N1CCN(c2ccccn2)CC1)S(=O)(=O)c1cccc2nsnc12 | i | 1.04 | 104.1 | -5.6 | 134.1 | -1.6 | 20.9
Cc1ccc(N(CC(=O)NCC2CCCO2)C(=O)CCC(=O)Nc2ccccn2)cc1 (stereo not given) | i | 0.99 | 29.8 | 33.3 | 75.5 | / | -3.1
CC(C)N(C(=O)CSc1nnc(Cn2nnc3ccccc32)n1C)C(C)C | i | 0.98 | 102.5 | 35.7 | 130.3 | -1.9 | -8.0
O=C(N/N=C/C=C\c1ccco1)c1cccs1 | i | 1.02 | 94.0 | / | / | / | 2.8
